Assay outcomes (PubChem BioAssay)
HPGD inh = HPGD (human) dehydrogenase inhibition; P15428; purified HPGD, NADH fluorescence kinetic, PGE2 substrate; Potency, µM, without a hit: top-dose activity change, negative = inhibition, usual class: inhibitors; 150,000 tested, 4.3% active; AID 894; active = well fitted inhibition curve with a large enough effect (not every such curve was filed as active); inconclusive = small, poorly fitted or top-dose-only effect, or another doubt; inactive = no such curve, though single readings can be large or run the other way;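 further: top concentration of the series not given in the record; plate controls included wells without enzyme; inactives centre near -10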
Target sequence (P15428 whole entry, looked up): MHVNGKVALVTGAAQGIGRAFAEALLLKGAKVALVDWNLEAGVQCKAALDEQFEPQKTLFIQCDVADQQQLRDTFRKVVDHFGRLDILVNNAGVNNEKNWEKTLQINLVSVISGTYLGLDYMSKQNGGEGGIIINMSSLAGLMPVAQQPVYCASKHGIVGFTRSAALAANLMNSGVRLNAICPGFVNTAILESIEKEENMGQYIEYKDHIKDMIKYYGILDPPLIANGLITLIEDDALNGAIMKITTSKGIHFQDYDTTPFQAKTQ
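NADH formation kinetics: reaction with 30 uM PGE2 and 1 mM NAD+ (final), 20 nM enzyme, Tris-HCl pH 8 with Tween 20, after 15 min compound preincubation at room temperature. Fluorescence change, last versus first of five reads.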
The depositor's hits bear a star; ? = inconclusive. On the % scale 0 is the no-effect control and ±100 the full control effect; potency means the concentration at half of the fitted maximal effect. An excerpt; the hit share may differ from the screen's.

SMILES	HPGD inh
O=C(NCc1ccc(Cl)cc1)C1CCC(CNc2c(N3CCCCC3)c(=O)c2=O)CC1 (stereo not given)	-28%
CCOC(=O)C1CCN(c2nnc(N3CCCC3=O)s2)CC1	-5%
COCCNS(=O)(=O)c1cc(-c2nn(C)c(=O)c3ccccc23)ccc1C	-27%
Nc1ccc2[nH]cc(CCC(=O)O)c2c1	?
COc1cc(OC)cc(C(=O)NCCNC(=O)c2ccccc2)c1	3%
C=CCc1ccccc1OCC(O)CN(CC)CC (stereo not given)	3%
O=c1[nH]c(CN2CCN(CCO)CC2)nc2ccccc12	5%
CCNC(=O)C1CCCN1S(=O)(=O)c1ccc(OC)cc1 (stereo not given)	-13%
c1ccc(-c2ccc3c(c2)c2c4n3CCN=C4CCC2)cc1	-11%
COc1ccccc1NC(=O)NC(N)=O	-9%
CN(C1CCCCC1)S(=O)(=O)c1ccc2c(c1)c(=O)c(C(=O)N1CCc3ccccc3C1)cn2C	-15%
O=S(=O)(CCc1ccccc1)c1nc2ccccc2s1	-11%
Cc1scc(C(=O)O)c1-c1c(C(=O)O)csc1C	-12%
CC(C)(C)NC(=O)Cn1c(SCC(=O)Nc2nccs2)nc2ccccc21	0%
N#Cc1c(N)oc(-c2ccc3c(c2)OCO3)c1-c1ccc2c(c1)OCO2	?
Cn1c(SCc2ccccc2)nnc1-c1cnccn1	-10%
CSc1nc2cc(F)c(F)cc2n1C	-17%
CCOC(=O)c1oc2nc(C(C)C)c3c(c2c1N)CC(C)(C)OC3	?
CCOC(=O)c1c(NC(=O)COC(=O)c2ccccn2)sc2c1CCC2	-11%
C=CCn1c(=O)c2ccccc2n2c(SCC(=O)Nc3sc(C)c(CC)c3C(=O)OCC)nnc12	-10%
Cc1nc(NC2CCCCC2)c2nc(-c3ccccc3)n(CCCN3CCOCC3)c2n1	?
c1ccc(C2NCCn3cccc32)cc1 (stereo not given)	-10%
CC(C)(C)NS(=O)(=O)c1ccc(NC(=O)C(Sc2ccccc2)c2ccccc2)cc1 (stereo not given)	-13%
C[N+](C)(C)C/C=C1/COCO1	-7%
CCCCCCCc1cc2c(cn1)=C(OC)C(C)(OC(C)=O)C(=O)C=2Cl (stereo not given)	-5%
CNC(=O)[C@H]1O[C@H](n2cnc3c(NCc4cccc(I)c4)ncnc32)[C@@H](O)[C@@H]1O	-8%
COC(=O)CCC(=O)NC(=S)Nc1c(C)cccc1C	-4%
CCCc1nnc(NC(=O)c2ccncc2)s1	-15%
O=C(COC(=O)c1ccc(NS(=O)(=O)c2ccc3c(c2)OCCO3)cc1)NC1CC1	-22%
CCc1c(C)sc(NC(=O)c2cc(C)no2)c1C#N	32µM*
COc1ccc(Cc2ccc(OC)c(N)c2)cc1N	-14%
Oc1ccc(O)c(-c2cnns2)c1	1.4µM*
Cc1ccc(C(=O)Nc2cc3c(cc2Cl)OCCCO3)cc1	-5%
O=C(OCC(=O)c1ccc(Cl)s1)c1ccccn1	-13%
O=C(Nc1ccc2c(c1)OCO2)C1(S(=O)(=O)c2ccc(Cl)cc2)CC1	3%
O=C(c1ccc(Cn2c(=O)[nH]c3ccccc3c2=O)cc1)N1CCN(c2ccccc2)CC1	?
COc1c(C)cccc1C(=O)NC(=S)Nc1ccc2c(c1)Cc1ccccc1-2	-12%
COc1ccc(CCNS(=O)(=O)c2ccc3c(c2)n(C)c(=O)c(=O)n3C)cc1OC	-2%
CCOC(=O)c1sc(NC(=O)c2cc(-c3cccc(O)c3)on2)c(C(=O)OCC)c1C	?
Cc1cc2c(c(=O)o1)C(C13C=CC(CC1)C3)C(C#N)=C(N)O2 (stereo not given)	-4%
CCOC(=O)Cc1cc(=O)[nH]c(/N=C(\N)Nc2ccc(C)cc2C)n1	-17%
O=C1CC(c2cccc(Cl)c2)CC(O)=C1C=Nc1cccc(Cl)c1 (stereo not given)	-26%
COc1cc2nc(C3CCC3)nc(N3CCN(c4ccccc4OC)CC3)c2cc1OC	-13%
CCCc1cc2c(c(NC(C)=O)n1)c(=O)oc1ccccc12	-14%
COC(=O)C1=C(C(=O)OC)[C@@H]2N(C)c3ccccc3[C@@]23C[C@@H](C(=O)OC)N(S(=O)(=O)c2cccs2)C3=N1	-9%
O=C(NCc1ccco1)C1CC(c2cccc([N+](=O)[O-])c2)=NO1 (stereo not given)	-8%
CC(C)Cc1nc(Cl)c(C#N)c2c1CCCC2	-6%
O=C1c2ccccc2C(=O)N1Cc1nn2c(-c3ccc(Cl)cc3)nnc2s1	-8%
CCCCN(C)/C=N/c1c(C#N)cnn1-c1ccc(C)cc1	-4%
CC1(C)CC2(CCO1)N1CC3(C)CN2CC(C)(C1)C3O (stereo not given)	4%
CC(=O)Nc1ccc(NCN2C(=O)[C@@H]3[C@H]4CC[C@H](C4)[C@@H]3C2=O)cc1	-9%
O=C(Nc1ccccc1)NC1CCS(=O)(=O)C1 (stereo not given)	-13%
COc1ccc(-c2nnn(CC(=O)NCc3ccccc3)n2)cc1OC	-12%
CCn1c(C(=O)N2CCc3ccccc3C2)cc2oc3ccccc3c21	?
COC(=O)C1=C(C)N(C)C(=S)NC1c1ccc(Cl)cc1 (stereo not given)	-1%
O=C(Nc1cc2c(oc1=O)CCCC2=O)c1ccccc1	2%
O=C1CC(c2ccco2)CC(O)=C1C=Nc1ccc(Br)cc1 (stereo not given)	-9%
CC(=O)CSc1nc2ccccc2s1	-11%
CS(=O)(=O)c1ccc(C(O)C(CO)NC(=O)C(Cl)Cl)cc1 (stereo not given)	-11%
CCCn1c(NC(=O)c2ccc(Br)cc2)nc2ccccc21	?

Continued.
SMILES	HPGD inh
CS(=O)(=O)NC1c2cccc3cccc(c23)C1N1CCOCC1 (stereo not given)	-12%
CC(=O)O[C@H]1C[C@H]2CC[C@@H]3[C@@H](CC[C@]4(C)[C@H](OC(C)=O)[C@H]([N+]5(C)CCCCC5)C[C@@H]34)[C@]2(C)C[C@H]1[N+]1(C)CCCCC1	-4%
CC(=O)N1CCc2cc(C(=O)CN3CCCCC3)ccc21	16µM*
COc1ccc2cc(-c3nc4ccccc4n3C)c(=O)oc2c1	?
CCCN(c1ccc(C(C)C)cc1)S(=O)(=O)c1c(C)[nH]c(=O)[nH]c1=O	-8%
Cn1c(NC(=O)c2ccccc2F)cc(=O)n(C)c1=O	-12%
CCOC(=O)C(Cc1ccccc1)C(=O)Nc1nccs1 (stereo not given)	-11%
CNC(=O)C1CC(=O)N(c2ccc(F)c(Cl)c2)C1 (stereo not given)	-11%
COC(=O)C1=C(C)N(C(C)C)C(=O)C1(NC(=O)C1CCCCC1)C(F)(F)F (stereo not given)	-3%
COC(=O)/C(=N\Nc1ccc(Cl)cc1)Sc1nnc(-c2ccc(OC)cc2)n1C	-16%
O=C(Nn1cc(C(=O)N2CCN(c3ccccc3F)CC2)c2ccccc2c1=O)c1cnccn1	-11%
COC(=O)[C@@]1(Cc2ccc(F)cc2)[C@H]2c3cc(C(=O)N4CCCC4)n(CCF)c3C[C@H]2CN1C(=O)c1ccccc1	-15%
S=C(Nc1ccc(Cl)cc1)N1CCCC1	2%
NC(=O)CSc1nc(-c2ccccc2)c(-c2ccccc2)o1	10%
CCn1c(CNC(=O)C23CC4CC(CC(C4)C2)C3)nnc1SCC(=O)Nc1nnc(C)s1	-1%
O=C(Nc1cc(C(F)(F)F)ccc1N1CCCC1)c1cccnc1	-8%
CC(C)CCNC(=O)C(c1ccco1)N(C(=O)Cn1nnc2ccccc21)c1ccc2c(c1)OCO2 (stereo not given)	-7%
Cc1nc(C)n(CC(O)COc2ccc3ccccc3c2)n1 (stereo not given)	-21%
CCn1cnc2c1c(=O)n(CC(=O)Nc1ccc3c(c1)OC(F)(F)O3)c(=O)n2Cc1ccccc1	-10%
CCOc1ccc(-c2nnn(CC(=O)Nc3cccc(OC)c3)n2)cc1OCC	-19%
CC(C)Oc1ccc(/C=N/NC(N)=S)cc1	-21%
Cc1ccc(CN2CCN(/N=C/c3cccnc3)CC2)c(C)c1	-1%
O=C(COC(=O)C1(c2ccccc2F)CCCC1)NC1CCS(=O)(=O)C1 (stereo not given)	0%
CN(C)C=NC1=NN(c2cccc(C(F)(F)F)c2)CC1	-5%
CCCOC(=O)c1ccc(Oc2cn[nH]c2-c2ccc(OC)cc2O)cc1	-15%
CCCCCSc1nnc2c(n1)OC(C)N(C(C)=O)c1ccccc1-2 (stereo not given)	-16%
CC(NC(=O)Nc1ccccn1)N1C(=O)C2C3C=CC(C3)C2C1=O (stereo not given)	6%
CCOC(=O)NC(Nc1ccc(OC)cc1)(C(F)(F)F)C(F)(F)F	-9%
COc1ccccc1CC(=O)O/N=C(\N)Cc1cccc2ccccc12	-9%
COC(=O)c1cccc(C23CC4(C2)[C@H](CN(Cc2ccc(-c5ccccc5)cc2)[C@@H]4c2ccccc2)C3c2ccccc2)c1 (stereo not given in full)	-5%
CCC(=O)N1CCc2cc(S(=O)(=O)N3CCN(C(=O)c4ccco4)CC3)ccc21	-9%
COc1ccc(/C=N/NC(=O)COc2cc(C)cc(C)c2)cc1COC(C)=O	-3%
CC(Oc1ccc(Cl)cc1Cl)C(=O)NCCCN1CCOCC1 (stereo not given)	-15%
O=C(NCc1ccccn1)C1CC(c2ccc(Cl)c(Cl)c2)=NO1 (stereo not given)	-21%
COC1=C(OC)c2ccccc2C(C(=O)O)N/C1=C(/C)Nc1ccncc1 (stereo not given)	-18%
COc1ccc2c(c1)CCc1sc(NC(=O)c3ccc(C)cc3)nc1-2	?
CC(=O)c1c(C)[nH]c(C(=O)CSc2nnc(C3CCCCC3)n2N)c1C	-13%
O=C(NS(=O)(=O)c1ccc(NC(=O)C2CCCO2)cc1)c1ccccc1 (stereo not given)	-16%
CCOc1ccc(C(C)=O)cc1N1C(=O)C2C3C=CC(O3)C2C1=O (stereo not given)	28µM*
O=[N+]([O-])c1cc(C(F)(F)F)cc([N+](=O)[O-])c1N1CCN(S(=O)(=O)c2ccccc2)CC1	-13%
CC(C)C(=O)NCCc1c[nH]c2ccccc12	-25%
O=C1/C(=C\c2ccc([N+](=O)[O-])cc2)CCc2ccccc21	-3%
COc1cc2c3c(c1)-c1c(sn(-c4cc(OC)ccc4OC)c1=S)C(C)(C)N3C(=O)C2=O	-13%
N#C/C(=C\c1ccc(N2CCOCC2)c([N+](=O)[O-])c1)c1nc2ccccc2[nH]1	-11%
COC(=O)c1ccccc1NC(=O)c1cccc(COc2ccccc2Cl)c1	?
Cc1nc2ccc(NS(=O)(=O)c3ccc4c(c3)OCCO4)cc2s1	-7%
Cc1cccn2c(=O)c3cc(C#N)c(=NC(=O)c4ccncc4)n(CCCOC(C)C)c3nc12	?
C=C(C)Cn1c(N2CCCC2)nc2c1c(=O)[nH]c(=O)n2C	1%
CC(=O)Nc1cc(C(=O)N2CCCC2)ccc1S(=O)(=O)c1ccc(C)cc1	-9%
C=C(C)C1CC=C(C)/C(=N/NC(=O)c2ccc(NC(=O)CCC)cc2)C1 (stereo not given)	-11%
CCOC(=O)c1sc(NC(=S)NC(=O)C23CC4CC(CC(C4)C2)C3)cc1C	-10%
CCC(C)NC(=O)CCSc1ccc(C)cc1 (stereo not given)	?
O=C(c1ccccc1)N1CCN=C1SCc1ccc([N+](=O)[O-])cc1	-1%
O=C(O)c1ccc(NC(=O)C2CC=CCC2C(=O)O)cc1 (stereo not given)	-8%
CN(CC(=O)Nc1ccc(F)cc1)c1ccc(S(=O)(=O)N2CCCCC2)cc1[N+](=O)[O-]	-5%
O=S(=O)(Nc1nc2ccccc2nc1Nc1ccc2c(c1)OCO2)c1ccccc1	-14%
CC1CCCCC1NC(=O)c1ccc(S(=O)(=O)NCc2ccco2)cc1 (stereo not given)	-14%
C=CCn1c(P(C)(=O)O)nc2ccccc21	-1%
CCCc1nnc(NC(=O)CCC(=O)NCc2ccccc2OC)s1	0%
Cc1cccc(OCC(=O)N(Cc2cccs2)C2CCS(=O)(=O)C2)c1 (stereo not given)	1%

An excerpt of these results, as labelled records:
CC(C)C(=O)NCCc1c[nH]c2ccccc12
  HPGD inh: -25%

CC(=O)Nc1cc(C(=O)N2CCCC2)ccc1S(=O)(=O)c1ccc(C)cc1
  HPGD inh: -9%

CCOC(=O)c1sc(NC(=S)NC(=O)C23CC4CC(CC(C4)C2)C3)cc1C
  HPGD inh: -10%

Arranged by heavy-atom count (descending): some entries from above.
SMILES	HPGD inh
Cc1cccn2c(=O)c3cc(C#N)c(=NC(=O)c4ccncc4)n(CCCOC(C)C)c3nc12	?
COc1cc2c3c(c1)-c1c(sn(-c4cc(OC)ccc4OC)c1=S)C(C)(C)N3C(=O)C2=O	-13%
CN(CC(=O)Nc1ccc(F)cc1)c1ccc(S(=O)(=O)N2CCCCC2)cc1[N+](=O)[O-]	-5%
O=S(=O)(Nc1nc2ccccc2nc1Nc1ccc2c(c1)OCO2)c1ccccc1	-14%
N#C/C(=C\c1ccc(N2CCOCC2)c([N+](=O)[O-])c1)c1nc2ccccc2[nH]1	-11%
CCOC(=O)c1sc(NC(=S)NC(=O)C23CC4CC(CC(C4)C2)C3)cc1C	-10%
C=C(C)C1CC=C(C)/C(=N/NC(=O)c2ccc(NC(=O)CCC)cc2)C1 (stereo not given)	-11%
Cc1cccc(OCC(=O)N(Cc2cccs2)C2CCS(=O)(=O)C2)c1 (stereo not given)	1%
O=C(c1ccccc1)N1CCN=C1SCc1ccc([N+](=O)[O-])cc1	-1%
O=C1/C(=C\c2ccc([N+](=O)[O-])cc2)CCc2ccccc21	-3%
CC(C)C(=O)NCCc1c[nH]c2ccccc12	-25%
C=CCn1c(P(C)(=O)O)nc2ccccc21	-1%

(more compounds)
SMILES	HPGD inh
COc1ccc(C(=O)CSc2nnc(-c3ccoc3C)n2CC2CCCO2)cc1 (stereo not given)	-9%
O=S(=O)(c1ccccc1)N1CCC(N2CCN(c3ccccc3)CC2)CC1	-9%
Nc1nnnn1CC(=O)OCc1cccc(Br)c1	-10%
C[C@@H](C(=O)Nc1ccc2ccccc2c1)[C@@H]1C[C@@]1(C)[C@@H](NS(=O)(=O)c1ccc(-c2ccccc2)cc1)c1ccccc1	-14%
